Screens deposited in PubChem by Broad Institute.
A1 apoptosis 2: A1 inhibition read as caspase activation; MEF A1-2A-BIM cells, caspase-Glo luminescence, 3 h; percent of clofoctol response, DMSO zero; caspase activation, % (no concentration beside the values); 24,000 tested, under 10 active; AID 2465; in the data active = caspase activation above about 5.9%;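 note: wells of about 30 µL received 50 nL stock; the first replicate is given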
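System: mouse embryonic fibroblasts co-expressing A1 and BIM (A1-2A-BIM), primed for A1 dependence; amount: 2500 cells/well; doses: 50 nL pinned compound; schedule: cells settled overnight, compound exposure 3 h at 37 °C, 5% CO2; detection: Caspase-Glo 3/7 luminescence, 1 h at room temperature; read-out: Caspase-3/7 activation, seen as rise in luminescence signal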
* = called active by the depositor. A portion of the library (hit frequency here may not be typical).

SMILES	A1 apoptosis 2
CNC[C@H]1Oc2ccc(NC(=O)NC(C)C)cc2C(=O)N([C@@H](C)CO)C[C@H]1C	-0.2
C[C@H](CO)N1C[C@H](C)[C@H](CN(C)C(=O)NC2CCCCC2)Oc2c(NC(=O)c3cnccn3)cccc2C1=O	0.2
C[C@@H]1CN([C@H](C)CO)C(=O)Cc2cc(NS(=O)(=O)c3ccccc3)ccc2O[C@@H]1CN(C)CC1CC1	-1.3
C[C@@H]1CN([C@@H](C)CO)C(=O)c2cc(NC(=O)c3ccncc3)ccc2O[C@@H](C)CCCCO[C@@H]1CN(C)Cc1ccncc1	0.7
C[C@@H]1CN([C@H](C)CO)C(=O)c2cccc(NS(C)(=O)=O)c2O[C@H]1CN(C)S(=O)(=O)c1cccs1	1.0
C[C@@H]1CN([C@@H](C)CO)C(=O)c2cccc(NC(=O)NC3CCCCC3)c2O[C@@H]1CN(C)S(=O)(=O)c1ccc(Cl)cc1	-1.3
C[C@@H]1CCCCO[C@@H](CN(C)C(=O)c2ccncc2)[C@H](C)CN([C@H](C)CO)C(=O)c2cc(NS(C)(=O)=O)ccc2O1	-0.9
Cc1ccc(S(=O)(=O)Nc2ccc3c(c2)C(=O)N([C@H](C)CO)C[C@H](C)[C@@H](CN(C)C)OCCCC[C@H](C)O3)cc1	0.1
C[C@@H]1CN([C@H](C)CO)C(=O)c2cccc(NC(=O)c3nc4ccccc4s3)c2O[C@H]1CN(C)C(=O)Nc1ccc(C(F)(F)F)cc1	1.3
Cc1noc(C)c1S(=O)(=O)N(C)C[C@@H]1OCCCC[C@H](C)Oc2ccc(NS(=O)(=O)c3ccc(F)cc3)cc2C(=O)N([C@H](C)CO)C[C@@H]1C	0.7
Cc1noc(C)c1NC(=O)Nc1cccc2c1O[C@H](CN(C)C(=O)Nc1ccc3c(c1)OCO3)[C@H](C)CN([C@H](C)CO)C2=O	0.8
C[C@@H]1CN([C@@H](C)CO)C(=O)c2cccc(NC(=O)c3ccncc3)c2O[C@@H]1CN(C)Cc1ccc(Cl)c(Cl)c1	-0.5
C[C@H]1CN([C@@H](C)CO)C(=O)c2cc(NC(=O)NC3CCCCC3)ccc2O[C@@H]1CN(C)C(=O)Nc1ccc(F)cc1	-0.5
C[C@@H]1CN([C@H](C)CO)C(=O)Cc2cc(NC(=O)Nc3cccc4ccccc34)ccc2O[C@H]1CN(C)CC1CC1	-0.9
COc1ccc(S(=O)(=O)Nc2ccc3c(c2)C(=O)N([C@@H](C)CO)C[C@@H](C)[C@H](CN(C)S(=O)(=O)c2ccc(Cl)cc2)OCCCC[C@@H](C)O3)cc1	-0.3
Cc1noc(C)c1NC(=O)Nc1ccc2c(c1)C(=O)N([C@H](C)CO)C[C@H](C)[C@@H](CN(C)Cc1ccc(C(=O)O)cc1)OCCCC[C@@H](C)O2	0.7
Cc1noc(C)c1NC(=O)N(C)C[C@@H]1Oc2ccc(N(C)C)cc2CC(=O)N([C@@H](C)CO)C[C@@H]1C	-1.2
COc1ccc(S(=O)(=O)N(C)C[C@H]2Oc3ccc(NC(=O)CCCN(C)C)cc3C(=O)N([C@@H](C)CO)C[C@H]2C)cc1	-1.0
C#CCN1C(Cc2ccccc2)C(=O)O[C@H](C2CCCCC2)[C@@H]1/C=C/C1CC1 (stereo partly drawn)	-0.4
CCc1cccc(NC(=O)O[C@H]2[C@H](OC(=O)Nc3ccccc3)[C@@H](OC(=O)Nc3ccccc3)[C@@H](OC)O[C@@H]2CO)c1	0.1
C[C@H](CO)N1C[C@H](C)[C@H](CN(C)C(=O)NC2CCCCC2)Oc2ccc(NC(=O)Cc3ccccc3)cc2C1=O	0.4
C#CCNC(=O)C1=C[C@@H](c2cn(C(C)=O)c3ccccc23)[C@H](CCCO)[C@@H](OCC)O1	0.6
C[C@@H]1CN([C@H](C)CO)C(=O)c2cc(NC(=O)CCC(F)(F)F)ccc2O[C@H]1CN(C)C(=O)Nc1ccc2c(c1)OCO2	-1.1
COc1ccc(NC(=O)N(C)C[C@@H]2OCCCC[C@@H](C)Oc3ccc(NS(C)(=O)=O)cc3C(=O)N([C@H](C)CO)C[C@@H]2C)cc1	0.5
C[C@@H]1CN([C@H](C)CO)C(=O)c2cccc(NC(=O)Nc3ccc(F)cc3)c2O[C@@H]1CN(C)Cc1ccc(Cl)c(Cl)c1	-1.3
CC(C)NC(=O)N(C)C[C@@H]1Oc2c(NS(=O)(=O)c3ccccc3)cccc2C(=O)N([C@@H](C)CO)C[C@H]1C	0.0
C[C@@H]1CN([C@@H](C)CO)C(=O)c2cccc(NC(=O)c3ccncc3)c2O[C@H]1CN(C)Cc1ccc(Oc2ccccc2)cc1	0.3
Cc1noc(C)c1S(=O)(=O)N(C)C[C@@H]1Oc2ccc(NC(=O)C3CC3)cc2CC(=O)N([C@@H](C)CO)C[C@@H]1C	-0.3
C[C@H](CO)N1C[C@H](C)[C@H](CN(C)Cc2ccc(-c3ccccc3)cc2)Oc2ccc(N(C)C)cc2C1=O	0.1
C[C@@H]1CN([C@@H](C)CO)C(=O)Cc2cc(NC(=O)Nc3cccc4ccccc34)ccc2O[C@@H]1CN(C)S(=O)(=O)c1cn(C)cn1	0.0
C[C@H](CO)N1C[C@H](C)[C@@H](CN(C)C)Oc2c(NS(=O)(=O)c3cccs3)cccc2C1=O	0.0
COc1ccc(S(=O)(=O)N(C)C[C@@H]2Oc3ncc(-c4cccc(C(F)(F)F)c4)cc3C(=O)N([C@H](C)CO)C[C@@H]2C)cc1	-1.1
C[C@@H]1CN([C@@H](C)CO)C(=O)Cc2cc(N(C)C)ccc2O[C@H]1CN(C)Cc1ccc(Cl)c(Cl)c1	-1.0
C[C@@H]1CCCCO[C@H](CN(C)C(=O)Nc2ccccc2)[C@@H](C)CN([C@@H](C)CO)C(=O)c2cc(NC(=O)Cc3ccccc3)ccc2O1	-1.1
Cc1noc(C)c1NC(=O)Nc1ccc2c(c1)C(=O)N([C@H](C)CO)C[C@@H](C)[C@@H](CN(C)C(=O)Nc1c(C)noc1C)O2	-0.7
CC(C)NC(=O)Nc1ccc2c(c1)C(=O)N([C@@H](C)CO)C[C@@H](C)[C@@H](CN(C)C(=O)Nc1ccc(C(F)(F)F)cc1)OCCCC[C@@H](C)O2	0.1
C[C@@H]1CN([C@H](C)CO)C(=O)Cc2cc(NC(=O)Cc3cn(C)c4ccccc34)ccc2O[C@H]1CN(C)C(=O)Nc1ccccc1	0.1
CC(C)NC(=O)N(C)C[C@@H]1OCCCC[C@@H](C)Oc2ccc(NC(=O)Cc3ccccc3)cc2C(=O)N([C@H](C)CO)C[C@H]1C	0.5
C[C@@H]1CN([C@H](C)CO)C(=O)c2cc(NC(=O)CCCN(C)C)ccc2O[C@H]1CN(C)Cc1ccc2c(c1)OCO2	0.0
Cc1ccc(S(=O)(=O)Nc2ccc3c(c2)CC(=O)N([C@@H](C)CO)C[C@H](C)[C@H](CN(C)Cc2ccc(-c4ccccc4)cc2)O3)cc1	0.2
C[C@@H]1CN([C@H](C)CO)C(=O)Cc2cc(NS(=O)(=O)c3ccc(F)cc3)ccc2O[C@@H]1CN(C)C(=O)Nc1ccc(C(F)(F)F)cc1	0.7
COc1ccc(NC(=O)Nc2ccc3c(c2)C(=O)N([C@@H](C)CO)C[C@H](C)[C@@H](CN(C)Cc2ccc(Cl)c(Cl)c2)OCCCC[C@H](C)O3)cc1	-0.9
C[C@H](CO)N1C[C@H](C)[C@@H](CN(C)Cc2ccc(Oc3ccccc3)cc2)Oc2ccc(NS(C)(=O)=O)cc2CC1=O	0.6
C[C@@H]1CN([C@H](C)CO)C(=O)CCCn2cc(nn2)CO[C@H]1CN(C)S(=O)(=O)c1ccc2ccccc2c1	0.4
CC(C)NC(=O)Nc1cccc2c1O[C@@H](CN(C)S(=O)(=O)c1ccccc1)[C@H](C)CN([C@H](C)CO)C2=O	-0.2
Cc1noc(C)c1S(=O)(=O)N(C)C[C@H]1OCCCC[C@H](C)Oc2ccc(NC(=O)Nc3ccc4c(c3)OCO4)cc2C(=O)N([C@@H](C)CO)C[C@@H]1C	0.8
CC(C)NC(=O)N(C)C[C@H]1Oc2ccc(NC(=O)Nc3ccc(C(F)(F)F)cc3)cc2CC(=O)N([C@H](C)CO)C[C@@H]1C	-1.6
C[C@@H]1CN([C@H](C)CO)C(=O)c2cccc(NC(=O)C3CCCCC3)c2O[C@H]1CN(C)C(=O)Nc1ccc2c(c1)OCO2	1.5
O=C1c2ccccc2[C@@]2(Cc3ccccc3N(Cc3ccccc3)C2=O)[C@H](c2ccc(CO)cc2)N1C1CCCCC1	1.0
C[C@@H]1CN([C@@H](C)CO)C(=O)CCCn2nncc2CO[C@@H]1CN(C)Cc1ccccc1C(F)(F)F	-1.6

The listing continues.
SMILES	A1 apoptosis 2
C[C@H]1CN([C@@H](C)CO)C(=O)Cc2cc(NC(=O)C3CC3)ccc2O[C@H]1CN(C)C	1.1
C[C@H]1CN([C@@H](C)CO)C(=O)c2cccc(NS(C)(=O)=O)c2O[C@H]1CN(C)C(=O)Nc1ccc2c(c1)OCO2	0.5
C[C@@H]1CCCCO[C@@H](CN(C)S(=O)(=O)c2ccccc2)[C@H](C)CN([C@H](C)CO)C(=O)c2cc(NC(=O)Nc3ccc(C(F)(F)F)cc3)ccc2O1	1.0
C[C@@H]1CN([C@@H](C)CO)C(=O)c2cc(NC(=O)Cn3cnnn3)ccc2O[C@@H]1CN(C)Cc1ccccc1	0.3
COc1cccc(S(=O)(=O)N(C)C[C@@H]2Oc3ncc(C#CCN(C)C)cc3C(=O)N([C@H](C)CO)C[C@@H]2C)c1	-0.3
C[C@@H]1CN([C@H](C)CO)C(=O)c2cc(N(C)C)ccc2O[C@@H]1CN(C)S(=O)(=O)c1cn(C)cn1	1.4
C[C@H]1CN([C@@H](C)CO)C(=O)c2cc(NC(=O)CCCCCC(=O)Nc3ccccc3N)ccc2O[C@@H]1CN(C)Cc1ccncc1	1.2
C[C@H]1CN([C@@H](C)CO)C(=O)CCCn2nncc2CO[C@@H]1CN(C)S(=O)(=O)c1ccc(Oc2ccccc2)cc1	1.1
COc1ccc(CN(C)C[C@@H]2OCCCC[C@H](C)Oc3ccc(NS(=O)(=O)c4ccc(OC)cc4)cc3C(=O)N([C@@H](C)CO)C[C@@H]2C)cc1	0.6
CC(C)NC(=O)N(C)C[C@H]1Oc2ccc(NC(=O)Cn3cnnn3)cc2C(=O)N([C@H](C)CO)C[C@H]1C	0.8
C[C@H]1CN([C@@H](C)CO)C(=O)c2cccc(NS(=O)(=O)c3ccc(Cl)cc3)c2O[C@@H]1CN(C)S(=O)(=O)c1ccccc1	-0.2
C[C@@H]1CN([C@H](C)CO)C(=O)Cc2cc(NC(=O)C3CCCCC3)ccc2O[C@@H]1CN(C)C(=O)NC1CCCCC1	-0.8
COc1ccc(NC(=O)Nc2cccc3c2O[C@@H](CN(C)S(=O)(=O)c2ccc(C)cc2)[C@H](C)CN([C@H](C)CO)C3=O)cc1	2.0
Cc1ccc(S(=O)(=O)N(C)C[C@@H]2Oc3c(NS(=O)(=O)c4ccc(Cl)cc4)cccc3C(=O)N([C@@H](C)CO)C[C@@H]2C)cc1	-0.7
COc1ccc(S(=O)(=O)Nc2ccc3c(c2)C(=O)N([C@@H](C)CO)C[C@@H](C)[C@H](CN(C)C)O3)cc1	-1.8
C[C@@H]1CN([C@@H](C)CO)C(=O)c2cccc(NC(=O)C3CC3)c2O[C@@H]1CN(C)S(C)(=O)=O	-1.6
O=C(N/N=C/c1ccco1)c1ccccn1	-3.6
C[C@H](CO)N1C[C@H](C)[C@H](CN(C)Cc2cccc(C(F)(F)F)c2)Oc2ncc(C#Cc3ccccc3)cc2C1=O	0.9
Cc1noc(C)c1S(=O)(=O)N(C)C[C@@H]1OCCCC[C@@H](C)Oc2ccc(NS(=O)(=O)c3ccc(F)cc3)cc2C(=O)N([C@H](C)CO)C[C@H]1C	2.0
C[C@@H]1CN([C@H](C)CO)C(=O)Cc2cc(N(C)C)ccc2O[C@H]1CN(C)Cc1ccc(Cl)c(Cl)c1	0.7
COc1ccc(CN(C)C[C@H]2Oc3ccc(NC(=O)NC4CCCCC4)cc3C(=O)N([C@@H](C)CO)C[C@@H]2C)cc1	0.4
C[C@H](CO)N1C[C@H](C)[C@H](CN(C)Cc2ccc(F)cc2)Oc2ncc(-c3cc4ccccc4o3)cc2C1=O	-0.5

A second format for some results above:
SMILES | A1 apoptosis 2
COc1ccc(NC(=O)Nc2cccc3c2O[C@@H](CN(C)S(=O)(=O)c2ccc(C)cc2)[C@H](C)CN([C@H](C)CO)C3=O)cc1 | 2.0
Cc1ccc(S(=O)(=O)N(C)C[C@@H]2Oc3c(NS(=O)(=O)c4ccc(Cl)cc4)cccc3C(=O)N([C@@H](C)CO)C[C@@H]2C)cc1 | -0.7
COc1ccc(S(=O)(=O)Nc2ccc3c(c2)C(=O)N([C@@H](C)CO)C[C@@H](C)[C@H](CN(C)C)O3)cc1 | -1.8
C[C@@H]1CN([C@@H](C)CO)C(=O)c2cccc(NC(=O)C3CC3)c2O[C@@H]1CN(C)S(C)(=O)=O | -1.6
O=C(N/N=C/c1ccco1)c1ccccn1 | -3.6
C[C@H](CO)N1C[C@H](C)[C@H](CN(C)Cc2cccc(C(F)(F)F)c2)Oc2ncc(C#Cc3ccccc3)cc2C1=O | 0.9
Cc1noc(C)c1S(=O)(=O)N(C)C[C@@H]1OCCCC[C@@H](C)Oc2ccc(NS(=O)(=O)c3ccc(F)cc3)cc2C(=O)N([C@H](C)CO)C[C@H]1C | 2.0
C[C@@H]1CN([C@H](C)CO)C(=O)Cc2cc(N(C)C)ccc2O[C@H]1CN(C)Cc1ccc(Cl)c(Cl)c1 | 0.7
COc1ccc(CN(C)C[C@H]2Oc3ccc(NC(=O)NC4CCCCC4)cc3C(=O)N([C@@H](C)CO)C[C@@H]2C)cc1 | 0.4
C[C@H](CO)N1C[C@H](C)[C@H](CN(C)Cc2ccc(F)cc2)Oc2ncc(-c3cc4ccccc4o3)cc2C1=O | -0.5
